NPYLR7 ag – mosquito NPYLR7 agonism. activation, % at 10 µM. actives 0.15% (n = 270,000). HEK293T NPYLR7/Galpha15, GCaMP6s calcium fluorescence. AID 1259423; in the data active = activation above about 40%;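 note: 0% = vehicle and 100% = reference agonist at the receptor; some compounds past the cut are filed as inactive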
NPYLR7 ag max-min – further read-out of NPYLR7 ag, marked with its call; activation, %; measured here: Max-Min RFU normalised activation; some inactives read as strong as hits;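 span of the calcium signal over five minutes; 0% = vehicle and 100% = native peptide agonist; compound fluorescence can raise it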
* = called active by the depositor.

SMILES | NPYLR7 ag | NPYLR7 ag max-min
CSc1ccc(C(=O)N2CCC(n3cnc4ccc(F)cc43)CC2)cc1 | 3 | 7
O=C1C(=O)N(C2CCCC2)C(=O)N1CC(=O)N(C1=CCCCC1)C1CC1 | 6 | 16
O=C1NCCN2CCN(Cc3cccc(OCc4ccccc4)c3)CC12 (stereo not drawn) | 5 | -1
O=C(NCCn1ncc2c(=O)n(Cc3ccc(F)cc3)cnc21)c1cc2ccccc2o1 | -2 | -3
O=C(CN1N=NC2C(=O)N(c3ccc(Cl)cc3)C(=O)C21)Nc1ccc(Cl)cc1Cl (stereo not drawn) | 9 | 0
Cn1ncc2c(NC3C=CS(=O)(=O)C3)nc(C(C)(C)C)nc21 (stereo not drawn) | 14 | 10
CCCC(C)c1nc(N2CCN(C(=O)NCC)CC2)c2cnn(-c3ccccc3)c2n1 (stereo not drawn) | -1 | -1
CCc1nc2c(OCC(N)=O)cccn2c1N(C=O)Cc1ccccc1 | -1 | 0
O=C(NCc1ccc2c(c1)OCCO2)N1CCN(S(=O)(=O)c2ccccc2Cl)CC1 | 0 | -2
COc1cc([N+](=O)[O-])ccc1NC(=O)C(C)Nc1ccc2nc(C)sc2c1 (stereo not drawn) | 4 | 6
Cc1ccccc1C(=O)N1CCOC(c2ccccc2)C1 (stereo not drawn) | 13 | 12
O=S(=O)(NCCOc1cc(N2CCCC2)ncn1)c1ccc(F)c(Cl)c1 | -3 | -2
Cc1ccc(-c2nn(CC(=O)NCc3ccc(F)cc3)c(=O)c3nc(C)sc23)c(C)c1 | 2 | 0
COCCn1c(C)cc(O)c(C(c2ccccn2)N2CCN(C)CC2)c1=O (stereo not drawn) | 4 | 1
Cc1[nH]c2ccccc2c1C(=O)C(=O)NCCN(C)C | -1 | -1
O=C(c1cnc2ccccn12)N1CC=C(c2cccs2)CC1 | -4 | -4
COC(=O)c1ccc2c(c1)S(=O)(=O)N(CC(O)c1ccccc1)C2=O (stereo not drawn) | 6 | 5
CS(=O)(=O)c1ccc2nc(NC(=O)COc3ccccc3[N+](=O)[O-])sc2c1 | -2 | -10
CNC(=O)c1cccc(NC(=O)CC2(C)N=C(c3cccc(C(F)(F)F)c3)N(C)O2)c1 (stereo not drawn) | 9 | 3
Cc1ccc2c(c1)C1CN(C)CCC1N2S(=O)(=O)c1ccc(C(C)C)cc1 (stereo not drawn) | 4 | 3

As a working copy, six of the compounds above.
SMILES | NPYLR7 ag | NPYLR7 ag max-min
O=C(NCCn1ncc2c(=O)n(Cc3ccc(F)cc3)cnc21)c1cc2ccccc2o1 | -2 | -3
O=C(CN1N=NC2C(=O)N(c3ccc(Cl)cc3)C(=O)C21)Nc1ccc(Cl)cc1Cl (stereo not drawn) | 9 | 0
Cn1ncc2c(NC3C=CS(=O)(=O)C3)nc(C(C)(C)C)nc21 (stereo not drawn) | 14 | 10
CCCC(C)c1nc(N2CCN(C(=O)NCC)CC2)c2cnn(-c3ccccc3)c2n1 (stereo not drawn) | -1 | -1
CCc1nc2c(OCC(N)=O)cccn2c1N(C=O)Cc1ccccc1 | -1 | 0
O=C(NCc1ccc2c(c1)OCCO2)N1CCN(S(=O)(=O)c2ccccc2Cl)CC1 | 0 | -2

Whole records, quoted from the list. Order of screens: NPYLR7 ag	NPYLR7 ag max-min
Cn1ncc2c(NC3C=CS(=O)(=O)C3)nc(C(C)(C)C)nc21 (stereo not drawn) as listed: 14	10
CNC(=O)c1cccc(NC(=O)CC2(C)N=C(c3cccc(C(F)(F)F)c3)N(C)O2)c1 (stereo not drawn) as listed: 9	3
Cc1ccccc1C(=O)N1CCOC(c2ccccc2)C1 (stereo not drawn) as listed: 13	12

The main list resumes, starting two compounds before the break.
SMILES | NPYLR7 ag | NPYLR7 ag max-min
CNC(=O)c1cccc(NC(=O)CC2(C)N=C(c3cccc(C(F)(F)F)c3)N(C)O2)c1 (stereo not drawn) | 9 | 3
Cc1ccc2c(c1)C1CN(C)CCC1N2S(=O)(=O)c1ccc(C(C)C)cc1 (stereo not drawn) | 4 | 3
O=C(CNc1ccc(-n2cncn2)c(Cl)c1)N1CCCCCC1 | 5 | 1
CCC(C)N(CC(=O)N1CCc2sccc2C1c1ccccc1)C(=O)c1ccccc1F (stereo not drawn) | 12 | 13
CN(Cc1cccs1)C(=O)CSc1nnc(-c2cccs2)n1C1CC1 | 11 | 9
COCCCN(CC(=O)N1CCc2sccc2C1c1ccc(Cl)cc1Cl)C(=O)C1C[C@H]1c1ccccc1 (stereo partly drawn) | 4 | 1
CC1(C(=O)NS(=O)(=O)c2ccc(F)cc2F)CCN1C(=O)Cc1ccc(Cl)cc1Cl (stereo not drawn) | 3 | -1
CC/C=C(/C)C(=O)N(C)Cc1ccc(C(=O)O)cc1 | -1 | -3
CN(C)C(=O)CN(C)S(=O)(=O)c1cc2[nH]c(=O)[nH]c2cc1Br | 10 | 9
CC(=O)N1CCN(c2ccc(C(=O)NNc3ccccc3C(F)(F)F)cn2)CC1c1ccccc1 (stereo not drawn) | 2 | 0
CC(=NNC(=O)Cn1nc(C)cc1C)c1ccco1 | 2 | 1
COc1cc(OC)cc(-n2c(CCC(=O)NCc3c(F)cccc3Cl)cc3c2-c2ccccc2CC3)c1 | 13 | 7
CCCc1cncnc1N1CCOc2c(O)cc(-c3cccc(Cl)c3)cc2C1 | 9 | 4
CCCN(CC(=O)N(CCOC)Cc1cccn1C)C(=O)c1cccc(Br)c1 | 11 | 8
CCc1cccc2c(C(CC(=O)N3CCN(Cc4ccccc4)CC3)c3cccc(OC)c3OC)c[nH]c12 (stereo not drawn) | 9 | 12
CCOC(=O)c1ccc2c(c1)nc(SCc1cccc(SC(F)(F)F)c1)n2CCOC | 1 | -2
CCCOc1ccc(C(=O)N(C)CCc2ccc(OC)c(OC)c2)cc1 | -1 | -6
Cc1cc(C)cc(C(=O)NC(C)c2ccc(F)cc2)c1 (stereo not drawn) | -3 | -2
COc1ccccc1CC1CCCN1C(=O)c1cc(-c2csc(C)n2)c[nH]1 (stereo not drawn) | 0 | -6
Cc1nc(SCC(=O)c2ccc(Cl)cc2)[nH]c(=O)c1C | 0 | -3
O=C1CN(CC(=O)N2N=C3/C(=C\c4cccs4)CCCC3C2c2cccs2)CCN1 (stereo not drawn) | 1 | 0
COc1ccc(C(=O)Nc2ccc(-c3nc4ccccc4o3)c(O)c2)cc1Br | -5 | -13
CCc1ccc(CN2CCc3c(C(=O)N4CCc5ccccc5C4)c(OC)cc(=O)n3CC2)cc1 | 1 | -3
Cn1nc(-c2ccccc2)c(CN(Cc2ccco2)CC(O)COc2ccccc2)c1Oc1ccccc1 (stereo not drawn) | 8 | 12
Oc1c(Br)cc(Br)cc1/C=N\Nc1ccc2c(Cl)cc(Cl)c(O)c2n1 | -11 | 0
CC1CCN(c2nc3c(c(=O)n(C)c(=O)n3C)n2CCCc2ccccc2)CC1 | -1 | -3
CCOC(=O)c1c(C)c(C(=O)NC2CCCCC2C)c(C)n1CC (stereo not drawn) | 9 | 23
CN(C)CCN(C)C1CCCN(C(=O)c2ccc(-c3ncn[nH]3)cc2)C1 (stereo not drawn) | 1 | 0
Cc1ccn2c(=O)c(NC(=O)c3ccccc3)c(C)nc2c1 | -7 | -5
O=C1NCC2(CCCN(C(=O)c3cc(=O)[nH]c4ccc(F)cc34)C2)O1 (stereo not drawn) | 13 | 11
CCCCCCN(CCCCCC)C(=O)Cc1c(-c2ccc(F)cc2)[nH]c2ccccc12 | 0 | -20
Cc1cc(Nc2ccc3c(n2)C(=O)N(CC(=O)NCCCn2ccnc2)C3)n(C)n1 | 8 | 2
Cc1ccc(-n2c(SCc3nc(C(=O)NCc4ccccn4)cs3)nnc2-c2ccccc2Cl)cc1 | 23 | 17
CC(C)=CCC/C(C)=C/CNC(=O)c1cccc(C)c1 | -7 | -11
CCCCN(CCCC)Cc1cn2c(-c3ccc(OC)cc3)nnc2s1 | 1 | 52
CCOC(=O)C(C#N)c1ccc(Cl)nn1 (stereo not drawn) | -4 | -5
CCCCNC(=S)N=Nc1c(O)[nH]c2ccc(F)cc12 | 4 | 11
CC(Oc1ccccc1)C(=O)N1CCC(Cc2ccc(-c3ccccc3)cc2)CC1 (stereo not drawn) | -1 | 7
CNC(=O)[C@@]1(OCc2cccc(Cl)c2)CC(OCc2c(F)cccc2F)[C@@H]2OC(C)(C)O[C@@H]2C1 (stereo partly drawn) | -4 | 6
O=C(Nc1ccc(OC(F)(F)F)cc1)c1cccn(OCc2ccccc2F)c1=O | -1 | -3
O=[N+]([O-])c1cccc(-c2ccc(SCc3ccncc3)nn2)c1 | 8 | 1
O=C(Cc1ccccc1)Nc1ccnn1C1CCN(Cc2ccc3cccc(F)c3n2)CC1 | -2 | -6
COCc1nn2c(nnc3c(=O)n(C4CC4)ccc32)c1-c1ccc(F)cc1 | 2 | 1
NC(=O)c1ccsc1NC(=O)CSc1nnc(-c2cccs2)n1C1CC1 | 4 | 4
Cc1nnc(-c2cccc(-c3ccccc3CO)c2)s1 | -4 | -4
O=C1CC(CNC2CCSCC2)CN1C1CCCC1 (stereo not drawn) | 2 | 1
CCOC(=O)c1c(C)[nH]c(C(=O)OCC(=O)c2ccc(Cl)s2)c1C | 5 | 5
CC1=C(C(=O)OCC(C)C)C23C(=O)c4ccccc4C2(OC(=N)C3C#N)O1 (stereo not drawn) | 4 | 3
COC(=O)c1c(N)sc2c1CCCCC2 | 0 | 1
CN(CCN1CCOCC1)C(=O)c1ccc(OC2CCN(Cc3ccccn3)CC2)cc1 | -6 | -9
COc1ccc(OC)c(C(F)(F)C(=O)N2CCC(NC(=O)c3ccccc3C)CC2)c1 | 12 | 9
CC(=O)c1cccc(-c2ccnc3[nH]ccc23)c1 | 6 | -1
Cn1c(SCC(=O)NC2CCCC2)nnc1-c1cccs1 | 2 | 3
CCC(CC)C(=O)N(C)c1c(C)nc2c(OCc3ccc(F)c(F)c3)cccn12 | 9 | -3
N#Cc1c(NC(=O)c2cccc(Cl)c2)sc2c1CCC2 | 1 | -1
CCC(C)N=Cc1c(Nc2ccccc2)nc2c(C)cccn2c1=O (stereo not drawn) | 3 | 11
CCOC(=O)c1c(C)[nH]c(C)c1-c1csc(NC2CC2)n1 | 15 | 14
CCOC(=O)C1C(=O)C=C(c2ccc(OC)cc2)CC1c1ccccc1 (stereo not drawn) | 4 | 6
CCCc1ccc(-c2ccc(C(=O)N3C[C@@H](N)C[C@H]3C(=O)NC)cc2)cc1 | 5 | 4
CCCCN(CC(=O)N(Cc1ccccc1)Cc1cccn1Cc1ccc(F)cc1)C(=O)C(C)(C)CCl | 2 | 17
Cc1cnc(C(=O)N2CCOc3ccc(C(O)C(c4ccccc4)c4ccccc4)cc3C2)cn1 (stereo not drawn) | 10 | -3
Cc1ccccc1CSc1nnc(C(C)NC(=O)NCc2ccccc2)n1-c1cc(Cl)ccc1C (stereo not drawn) | 2 | 12
Continued:
SMILES | NPYLR7 ag | NPYLR7 ag max-min
Brc1ccc2nc(NCc3ccccn3)nc(-c3ccccc3)c2c1 | 9 | 6
CCOc1ccc(C(=O)Nc2ccc(Cl)c(NC(=O)c3ccccc3)c2)cc1[N+](=O)[O-] | -3 | -1
CC1(Cc2ccc(C(F)(F)F)o2)C(=O)Nc2cc(-c3ccc(F)cc3F)ccc21 (stereo not drawn) | 1 | 2
CC(=O)c1ccc(NC(=O)C(C)Sc2nc3c(cnn3-c3ccc(C)cc3)c(=O)[nH]2)cc1 (stereo not drawn) | 4 | 8
Cc1nc2ccccn2c1C(=O)NNS(=O)(=O)c1cc(Cl)cc(Cl)c1 | 4 | -1
Cc1ccc(C(O)=C2C(=O)C(=O)N(CCCN3CCOCC3)C2c2ccc([N+](=O)[O-])cc2)cc1 (stereo not drawn) | 3 | -1
CSc1ccc(CN2C(=O)CON=C2c2ccccn2)cc1 | -6 | -6
c1ccc(CCCn2ccnc2-c2ccccn2)cc1 | 32 | 24
Cc1ccc2nc(N3CCN(c4ccccc4Cl)CC3)nc(-c3ccccc3)c2c1 | -13 | -21
CCOC(=O)c1[nH]ncc1C1CC(=O)NCc2nc3ccccn3c21 (stereo not drawn) | 17 | 8
CCCC(=O)N1CCCC(C(=O)NC2CCN(CCOC(C)C)CC2)C1 (stereo not drawn) | 2 | 2
OC(Cc1ccccc1)CN(Cc1ccco1)Cc1ccccc1F (stereo not drawn) | -4 | 1
CCN(CC)C(=O)Oc1ccc2c(ccn2Cc2cc(Br)cc(Br)c2)c1-c1ccc(OC)cc1 | 13 | 6
Cn1nnc2cc(C(=O)N3CCN(C4CCCC4O)CC3)ccc21 (stereo not drawn) | -6 | -6
CCN(CC)Cc1cnc2c(C(=O)N3[C@@H]4CC[C@H]3CC(O)C4)cnn2c1 (stereo partly drawn) | 2 | -2
CC(CSc1ncccn1)Cn1c(N2CCN(C)CC2)nc2c1c(=O)[nH]c(=O)n2C (stereo not drawn) | -1 | 26
O=C(NCCN1CCOCC1)c1cnn2c1NC(c1cccs1)CC2C(F)(F)F (stereo not drawn) | -11 | -9
O/N=C1/CCCc2c1nc(-c1cccc(F)c1)n2O | 0 | 9
Cc1cc2c(N(C)C3CCCCC3)ncnc2s1 | 7 | 4
C#CCOCC(O)CN(Cc1cccc(OC)c1)CC1CC(c2ccc(Cl)cc2)=NO1 (stereo not drawn) | -3 | 1
COc1ccc(Cl)cc1S(=O)(=O)Nc1ccccc1F | 2 | 3
Cn1c(N)c(C(=O)c2ccco2)c(=O)n(C)c1=O | -3 | 2
CC(C)c1[nH]nc(C(=O)Nc2ccccn2)c1Br | 2 | 8
O=C(c1ccc(Nc2cccc(C(F)(F)F)c2)nc1)N1CCC(O)(c2ccccc2)CC1 | -4 | -4
CNC(=O)NC(=O)CCCN1CCSCC1 | 7 | 3

Some of the compounds tested. The share of hits here may be higher or lower than overall.
